Screening data (PubChem)
GIV Gai3 FP: inhibitors of GIV peptide binding to Galpha-i3, primary screen, biochemical, fluorescence polarization, FITC-GIV GBA peptide, rat Galphai3; Guanine nucleotide-binding protein G(i) subunit alpha-3 (Rattus norvegicus), P08753; 90 min; hits give low values; scaled: aluminum fluoride 0%, vehicle 100%; percent of control (FP), % (test concentration not listed); hit rate 0.42% among 210,000; AID 1224905, 2016;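 active = replicate mean at 85% of control or lower, very high polarization wells dropped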;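 note: wells of about 15 µL received 100 nL stock; the first replicate is given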
Target sequence (P08753 whole entry, looked up): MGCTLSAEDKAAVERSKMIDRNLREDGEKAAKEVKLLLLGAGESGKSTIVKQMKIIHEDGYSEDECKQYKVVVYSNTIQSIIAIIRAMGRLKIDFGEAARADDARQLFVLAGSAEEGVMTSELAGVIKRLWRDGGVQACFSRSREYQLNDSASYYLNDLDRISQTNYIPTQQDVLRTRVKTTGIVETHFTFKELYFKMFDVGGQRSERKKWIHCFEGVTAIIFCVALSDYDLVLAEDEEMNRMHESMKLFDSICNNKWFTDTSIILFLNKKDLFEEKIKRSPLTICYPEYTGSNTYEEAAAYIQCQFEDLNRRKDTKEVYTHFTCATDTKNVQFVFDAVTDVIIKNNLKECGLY
HCMV UL50-53 inh: inhibitors of HCMV UL50-UL53 interaction, biochemical, HTRF; HCMV UL50-UL53 nuclear egress complex (human cytomegalovirus); normalized percent inhibition; inhibition, % (test concentration not listed); hit rate 0.15% among 190,000; AID 1918969, 2023;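 active = both replicates at 50% or more, plus weaker picks with an unusually low signal ratio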;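 note: stock transfer was 100 nL into about 20 µL; 0% = negative control wells and 100% = wells with untagged competitor protein; inactives centre near -12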
Sa growth 42C: S. aureus growth inhibition at 42 and 30 °C, primary screen, LtaS inhibitor project, RN4220, two temperatures. OD600, 20 h, 42 °C; hits give low values. relative growth, % (test concentration not listed). hit rate 0.53% among 170,000. AID 720641, 2013;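 active = growth at 42 °C up to 50% and 20 or more points under that at 30 °C, or under 10% at both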;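 note: 300 nL library stock went into each well; scaled to the means of positive and negative controls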
Sa growth 42C second temp: recorded beside Sa growth 42C, whose call it bears; relative growth, %; measured here: growth at 30 °C;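 optical density after 20 h as mean of two plates; 100% = untreated growth and lower means inhibition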
Numbers without * were called inactive; / = not tested or not shown; & = joins results of further samples.

SMILES	GIV Gai3 FP	HCMV UL50-53 inh	Sa growth 42C	Sa growth 42C second temp
COc1ccc(-n2nc(C(=O)Nc3cccc(OC)c3)c(=O)n(C)c2=O)cc1	99	-70	/	/
O=C(CN1C(=O)c2cccnc2Oc2ccc(Cl)cc21)Nc1ccc(F)cc1	112	5	96	100
CCOc1ccc2c(c1)C(C)=CC(C)(C)N2C(=O)C(C)N1C(=O)c2ccccc2C1=O (centres undefined)	104	-7	103	90
COc1ccc(CCNC(=O)NCc2noc3ccccc23)c(OC)c1	104	/	83	98
CCOc1ccc(NC(=O)c2cccc(NC3=NC4CS(=O)(=O)CC4S3)c2)cc1 (centres undefined)	106	-33	/	/
OCc1nc2ccccc2n1Cc1c(F)cccc1Cl	97	-11	106	84
Cc1cc(C)nc(-n2nc(C)cc2NC(=O)CNCc2ccccc2)n1	/	0	95	94
C=CCN(CC=C)C(=O)CSC1=C(C#N)C(C)(C)C(C#N)C(=O)N1 (centres undefined)	/	-19	105	95
COc1ccccc1CNC(=O)c1cnn2c(C)c(Cc3ccc(F)cc3)c(C)nc12	96	/	113	88
CSc1ncccc1C(=O)N(Cc1ccccc1)C1CCS(=O)(=O)C1 (centres undefined)	/	-36	73	94
O=C(CSc1nnc(-c2ccncc2)n1-c1ccccc1)c1ccccc1	104	/	97	70
Cc1nc(N2CCOCC2)ncc1C(=O)NC1CCCC1	104	-19	/	/
COc1cc(Nc2ncc3c(n2)CCN(S(=O)(=O)c2ccc(F)c(Cl)c2)C3)cc(OC)c1	107	-12	/	/
COc1cccc(CN2CCN(C(=O)CC(C)C)CC2)c1	107	-6	87	86
COCCNC(=O)c1ccccc1NC(=O)c1nsc2ccccc12	104	/	87	90
CCn1c(C)nc2cc(C(=O)N3N=CCC3(O)C(F)(F)F)ccc21 (centres undefined)	/	-41	89	80
CC1(C)Cc2ccccc2C(N)=C1C#N	105	-56	87	82
Cc1ccc(-c2nc(NC(=O)C(C(C)C)N3C(=O)c4ccccc4C3=O)sc2C)cc1 (centres undefined)	114	/	80	98
COc1cccc(NC(=O)Cn2cc(C(=O)c3ccc(C)cc3)c(=O)c3cc(OC)ccc32)c1	100	-21	98	86
Cc1ccccc1C1C2=C(CC(C)(C)CC2=O)OC2=C1C(=O)CC(C)(C)C2	106	-17	/	/
COc1ccc(NC(=O)CN(Cc2ccccc2)S(=O)(=O)c2ccc(C)cc2)cc1Cl	108	4	102	100
CC1=C(c2ccc(F)cc2)S(=O)(=O)N(CC(=O)Nc2ccc(Br)cc2F)C1=O	101	-29	/	/
CCCc1nc2nc[nH]n2c(=O)c1NC(=O)Nc1cc(F)ccc1F	99	6	/	/
CCc1noc(C)c1C(=O)OCC(=O)c1ccc2ccccc2c1	/	-18	99	91
CNCCC(Oc1ccccc1C)c1ccccc1 (centres undefined)	96	-88&-1	/	/
CCc1nn(CC(=O)NC(C)CCc2ccccc2)c(=O)c2cc3c(OC)cccc3n12 (centres undefined)	100	-1	97	88
CS(=O)(=O)N1CCCC(C(F)(F)F)C1 (centres undefined)	/	-10	106	93
COc1cc(OC)c(NC(=O)CCc2c(C)nc3ncnn3c2C)cc1Cl	101	-21	117	91
O=C(COC(=O)c1ccccc1O)NC12CC3CC(CC(C3)C1)C2	/	-20	100	83
N#CC1=C2SCN(C3CCCCC3)CN2C(=O)CC1c1ccccc1 (centres undefined)	107	-10	89	87
COc1ccc(CCN=C(C)C2=C(O)COC2=O)cc1OC	/	-11	86	102
O=C(NCc1ccccc1Cl)C1=CSCCO1	97	/	102	87
COc1ccc(Cl)c(NCCC(=O)O)c1	101	/	117	89
CN(C)/C=C1/C(=O)c2sccc2N(C)S1(=O)=O	109	-56	103	73
Cc1cc(S(=O)(=O)C(CNC(=O)COc2ccc(Cl)cc2)c2cccs2)ccc1F (centres undefined)	111	/	108	99
Cc1cccc(NC(=O)C(CC(C)C)NS(=O)(=O)c2ccc3c(c2)oc(=O)n3C)c1 (centres undefined)	104	/	114	102
CCSC1=NC2(CCN(C(=O)Nc3ccccc3)CC2)N=C1c1ccccc1	104	-9	101	94
CNS(=O)(=O)c1cccc(C(=O)NCCCn2nc(C)cc2C)c1	/	-29	92	90
CCCN(C(=O)Cc1coc2cc(OC)ccc12)C1CCS(=O)(=O)C1 (centres undefined)	/	-8	96	80
COc1ccc(CNC(=O)C2=C(C(=O)O)CCCC2)cc1	98	5	107	82
CC(C)c1ccc2nc(SCC(=O)N3CCCC3)c(C#N)cc2c1	104	-60	102	85
CC(CC(=O)O)n1nnc2ccccc21 (centres undefined)	/	-10	112	81
COc1ccc(-n2cnc3cc(C(=O)N4CCOCC4)ccc32)cc1	106	/	87	86
CN(C)S(=O)(=O)c1ccc(C(=O)Nc2c(C(=O)Nc3ccc(F)cc3)oc3ccccc23)cc1	101	-18	97	85
O=C(NCC1CCCO1)c1ccc2c(c1)CCN2S(=O)(=O)c1ccccc1 (centres undefined)	99	-6	/	/
CCOC(=O)CN1N=C(c2ccc(Cl)cc2)CCC1=O	106	/	124	84
O=C(CN1CCCC1)N1c2ccccc2C=Cc2ccccc21	102	-28	98	87
Cc1ccc(OC(=O)c2cc(S(=O)(=O)N3CCCC3)ccc2C)cc1C	97	/	81	87
O=C(CCn1cnc2cc(S(=O)(=O)N3CCCC3)ccc21)N1CCN(c2ccccc2)CC1	106	-8	/	/
CCOC(=O)C1=C(C)N=c2s/c(=C\c3ccc(O)c(OCC)c3)c(=O)n2C1c1ccc(N(C)C)cc1 (centres undefined)	126	-11	/	/
CC(C)c1cc(N2CCCC2)n2c(nc3ccccc32)c1C#N	105	-29	79	79
CC(C#N)(NC(=O)CN1CCN(c2cccc(C(F)(F)F)c2)CC1)C1CC1 (centres undefined)	/	-25	92	87
COc1ccccc1C(=O)Nc1ccc2nc(SCC(=O)N(C)c3ccccc3)sc2c1	103	-6	98	86
CC12CN3CC(C)(CN(C1)C3c1ccccc1)C2O (centres undefined)	98	-33	94	85
c1cc(-c2nnn(C3CCCCC3)c2NC2CCCCC2)[nH]n1	/	-7	62	67
CCOC(=O)Cc1ccc(NC(=O)C(F)(F)C(F)F)cc1	106	-34	108	96
CCOc1ccc(OCC)c(NC(=O)c2cc(C)nc3c2c(C)nn3-c2cccc(Cl)c2C)c1	105	/	88	92
Cc1cc2c(cc1S(=O)(=O)N1CCC(C(=O)NCCC3=CCCCC3)CC1)OCC(=O)N2	98	2	/	/
Cc1cc(C)cc(Oc2c(C(F)(F)F)oc3cc(OCC(=O)NC4CCCCC4)ccc3c2=O)c1	104	14	87	103
COC(=O)c1csc(S(=O)(=O)N=S(C)(=O)c2cccs2)c1OC (centres undefined)	100	-12	89	86

4 compounds from above, limited to GIV Gai3 FP, Sa growth 42C and HCMV UL50-53 inh:
mol,GIV Gai3 FP,Sa growth 42C,HCMV UL50-53 inh
CCOC(=O)C1=C(C)N=c2s/c(=C\c3ccc(O)c(OCC)c3)c(=O)n2C1c1ccc(N(C)C)cc1 (centres undefined),126,/,-11
CC(C)c1cc(N2CCCC2)n2c(nc3ccccc32)c1C#N,105,79,-29
CC(C#N)(NC(=O)CN1CCN(c2cccc(C(F)(F)F)c2)CC1)C1CC1 (centres undefined),/,92,-25
COc1ccccc1C(=O)Nc1ccc2nc(SCC(=O)N(C)c3ccccc3)sc2c1,103,98,-6

Next results.
SMILES	GIV Gai3 FP	HCMV UL50-53 inh	Sa growth 42C	Sa growth 42C second temp
CCCCN(C)C(=O)CSc1c2c(nc3ccc(Cl)cc13)CCCC2	104	-29	104	84
COc1ccc(NC(=O)CCSc2nc(-c3ccco3)cc(C(F)(F)F)n2)cc1	109	-27	97	89
COc1cc(NC(=O)C2CCCN2C(=O)C2CCC(C)CC2)cc(OC)c1OC (centres undefined)	104	/	104	83
c1ccc(-c2noc(CC3CCCCC3)n2)nc1	100	-4	85	81
COc1ccc(-c2nonc2NC(=O)c2ccccc2)cc1	105	0	94	89
CN(C)CCNc1cc(N2CCN(C(=O)c3ccco3)CC2)c2noc3c2c1C(=O)c1ccccc1-3	-31*	-132	112	88
C/C(=N\Nc1cccc2cccnc12)C(C)(C)C	114	-31	92	72
CCOCNC(=O)Nc1ccc(Cl)cc1	/	-9	84	96
COC(=O)c1nc2nc(C)cc(=O)n2[nH]1	101	-12	/	/
O=C(NC1CC1)c1cccc(-n2cnc3cccnc32)c1	102	5	/	/
CCCCn1c(=O)c2oc3ccccc3c2n(Cc2cc(C)ccc2C)c1=O	108	9	103	108
COc1ccc(-n2nc(C(=O)Nc3ccccc3OC)c3c4ccccc4n(C)c3c2=O)cc1Cl	103&102	-32	89	88

One compound at a time, from the list above. Screens in order: GIV Gai3 FP | HCMV UL50-53 inh | Sa growth 42C | Sa growth 42C second temp
CCCCn1c(=O)c2oc3ccccc3c2n(Cc2cc(C)ccc2C)c1=O reads 108 | 9 | 103 | 108
CCCCN(C)C(=O)CSc1c2c(nc3ccc(Cl)cc13)CCCC2 reads 104 | -29 | 104 | 84
CCOCNC(=O)Nc1ccc(Cl)cc1 reads / | -9 | 84 | 96
COC(=O)c1nc2nc(C)cc(=O)n2[nH]1 reads 101 | -12 | / | /
COc1ccc(-c2nonc2NC(=O)c2ccccc2)cc1 reads 105 | 0 | 94 | 89

(listing goes on)
SMILES	GIV Gai3 FP	HCMV UL50-53 inh	Sa growth 42C	Sa growth 42C second temp
CCN(c1ccccc1)S(=O)(=O)c1ccc2c3c1CC(=O)N3CC(C)S2 (centres undefined)	104	2	/	/
CC(C)(C)OC(=O)CN1c2cccc3cccc(c23)S1(=O)=O	/	-41	115	93
COc1ccc(-c2nn(CN3CCOCC3)c(=S)n2-c2ccccc2)cc1OC	100	-19	82	68
O=C(COc1ccccc1[N+](=O)[O-])Nc1ccc(-c2nc3ccccc3s2)cc1	106	-14	103	86
Cc1ccc(S(=O)(=O)NCC(c2cccnc2)N2CCc3ccccc32)cc1 (centres undefined)	109	-8	/	/
COc1ccc(CSc2nc3ccncc3n2Cc2nc(-c3ccc(OC)c(OC)c3)oc2C)cc1	106	-16	112	92
CC1CCN(C(=O)COC(=O)COc2ccccc2-c2ccccc2)CC1	/	-41	112	77
Cn1c(=NC(=O)CCS(=O)(=O)c2ccc(F)cc2)sc2cc(F)ccc21	99	-6	110	96
c1csc(-c2ccnc(SCc3ccc4nonc4c3)n2)c1	105	-23	107	80
COc1ccc(CN(C)C(=O)CN2C(=O)C3CC=CCC3C2=O)cc1OC (centres undefined)	/	-14	82	83
O=C(c1cccc([N+](=O)[O-])c1)N1CCN(c2ccc(Nc3ccccc3)nn2)CC1	101	/	110	90
CCOCC(=O)OCc1ccc(Cl)cc1	/	-4	115	89
Clc1cc(Cl)cc(OCc2nc(-c3cc(-c4ccccc4)no3)cs2)c1	102	/	125	89
CC1(C)C(=O)OC(c2c(F)c(F)c(F)c(F)c2F)C2(CCCCC2)C1=O (centres undefined)	103	-10	103	93
COc1ccc(-c2c(C)nn3c(NCc4ccc(C)cc4)cc(C)nc23)cc1OC	106	-16	/	/
OC(COc1ccc(F)cc1)(c1ccccc1)c1ccccc1	104	-9	99	85
CCOC(=O)/C=C(\C)N1CCOCC1	/	-16	91	91
CCOC(=O)C(C#N)c1nc2ccccc2nc1N1CCN(C(=O)c2ccco2)CC1 (centres undefined)	/	-67	98	95
O=C(Nc1ccc(N=Cc2cccs2)cc1)c1ccccc1O	111	-1	92	100
CCOc1ccc(CCNC(=O)c2nn(-c3ccc(OC)c(Cl)c3)c(=O)c3c2c2ccccc2n3C)cc1OCC	99	-10	100	98
Cc1csc(=O)n1CC(=O)OCCCn1c(=O)[nH]c2ccccc21	/	-7	87	98
CC(=O)N1C(=S)NC(=O)/C1=C\c1ccc(C(C)C)cc1	112	/	88	85
O=C(CCC(=O)N1Cc2ccccc2Oc2ncccc21)N1CCCC1	105	-30	103	89
CCCCN(CC)CCCNC(=O)Cn1ncc2c([nH]c3ccc(C)cc32)c1=O	104	/	94	92
O=C(NCCc1ccccc1)C1CCN(C(=O)c2ccco2)CC1	104	-40	109	98
COC(=O)C(C)N(C(=O)c1c(F)cccc1F)c1c(C)cccc1C (centres undefined)	/	-8	100	91
CC1Cc2cc(C(=O)NC3CCCCC3)ccc2O1 (centres undefined)	106	-17	99	96
CCOc1cc(C(=O)N(CC)Cc2ccncc2)cc(OCC)c1OCC	100	-18	108	98
Oc1ccc(NCc2ccc(OCc3ccccc3Cl)cc2)cc1	101	-4	92	81
CCOC(=O)c1[nH]c(C)c(C(=O)OCC(=O)N2CCCCC2C)c1C (centres undefined)	/	-3	97	98
COc1ccc(-c2cc(C(=O)Nc3cc(C)ccc3C)nn2C2CCS(=O)(=O)C2)cc1 (centres undefined)	102	0	/	/
CO[C@@]12[C@@H]3NC3CN1C1=C(C(=O)C(N)=C(C)C1=O)[C@@H]2COC(N)=O (some centres undefined)	/	-104	0.2*	1.2*
Cc1cc(C)c(C(N)=O)c(SCC(=O)c2ccccc2)n1	108	-2	83	74
[O-][n+]1onc2c(-c3ccccc3)nnc(-c3ccccc3)c21	98	-55	94	71
